HNF4A DNA FP – change in binding of human HNF4 alpha to DNA; HNF4a-FITC DNA binding, fluorescence polarization, 1 h; activity change, % at 10 µM; 360,000 tested, 0.3% active; P41235; in the data active = activity change above about 30%, passing the limit was not always enough;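 note: controls were the assay level and a saturating level of protein; the project sought stronger binding though the title names inhibitors; some compounds called inactive have numbers as strong as hits; positive values seem to mean higher polarization but the record does not say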
LANA-H2A inh – blocks KSHV LANA binding to histone H2A/H2B; Q9QR71; cell-free LANA-H2A/H2B peptide, fluorescence polarization; inhibition, % (concentration not given with the values); 320,000 tested, 0.6% active; AID 2629; in the data active = inhibition mostly above about 10%, no sharp cut-off; inactive = mostly below about 6.7%;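 note: stock transfer was 7.5 nL into about 10 µL; 0% = median of vehicle wells and 100% = median of positive control wells; one replicate is shown; the record names a cut of 25% in any replicate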
FGF22 binding – shifts melting point of recombinant human FGF22; Q9HCT0; recombinant FGF22 thermal shift, SYPRO orange fluorescence; percent of sucrose octasulfate shift, DMSO zero; calls only at 9.99 µM; 340,000 tested, 1.5% active; AID 651658;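 active = melting point raised past a set limit in the mean and every replicate; three in four hits are not shown here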
UCH37 inh – human UCH37 deubiquitinating enzyme inhibition; Q9Y5K5; purified proteasome/UCH37, Ub-AMC cleavage fluorescence; inhibition, % (no concentration beside the values); 330,000 tested, 0.33% active;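 active = mean of two replicates above 20%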;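 note: 0% = compound-free wells with enzyme and 100% = wells lacking proteasome; stock transfer was 100 nL into about 20 µL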
Target sequence (Q9Y5K5 whole entry, looked up): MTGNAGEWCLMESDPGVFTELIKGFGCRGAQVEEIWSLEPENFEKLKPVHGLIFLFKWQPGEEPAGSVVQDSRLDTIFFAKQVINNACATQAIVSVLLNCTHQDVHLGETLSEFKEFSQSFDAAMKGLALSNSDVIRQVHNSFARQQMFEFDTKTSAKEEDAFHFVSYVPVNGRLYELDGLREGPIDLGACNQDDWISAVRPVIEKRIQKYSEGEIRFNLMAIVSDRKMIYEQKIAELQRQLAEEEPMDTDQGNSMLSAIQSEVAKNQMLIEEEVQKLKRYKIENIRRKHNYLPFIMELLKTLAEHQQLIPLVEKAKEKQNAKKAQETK
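Test system – human UCH37 enzyme supplied as purified proteasome complex · Incubation – 30 min preincubation with enzyme, 25 min cleavage at room temperature · Detection – AMC fluorescence from Ub-AMC cleavage, excitation 355 nm, emission 460 nm · Benchmarks – no-proteasome wells (full inhibition) and compound-free wells (no inhibition)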
Beta2AR agonist – human beta-2 adrenergic receptor agonism by FAP. P07550. 340,000 tested, 0.43% active. response, % (no concentration beside the values). Am2.2-beta2AR cells, FAP receptor internalization, flow cytometry; reference of the scale not given here;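 active = response above a set limit, near 3 SD of response in nonfluorescent compounds, cut at about 42% in these data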;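 note: stock transfer was 100 nL into about 11 µL; a reference agonist was the positive control; negative values mostly stem from fluorescent compounds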
Target sequence (P07550 whole entry, looked up): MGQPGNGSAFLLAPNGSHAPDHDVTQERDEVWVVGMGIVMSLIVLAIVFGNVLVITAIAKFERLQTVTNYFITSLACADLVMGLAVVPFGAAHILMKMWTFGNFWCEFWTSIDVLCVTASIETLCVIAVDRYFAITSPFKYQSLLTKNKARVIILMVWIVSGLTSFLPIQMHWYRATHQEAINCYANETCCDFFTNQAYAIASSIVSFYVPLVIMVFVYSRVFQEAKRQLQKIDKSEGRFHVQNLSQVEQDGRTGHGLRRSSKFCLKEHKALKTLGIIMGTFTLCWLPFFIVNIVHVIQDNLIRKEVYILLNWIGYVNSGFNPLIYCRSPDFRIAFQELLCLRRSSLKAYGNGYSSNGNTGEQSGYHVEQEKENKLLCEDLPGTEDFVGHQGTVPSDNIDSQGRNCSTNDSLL
ALR inh – blocks human ALR sulfhydryl oxidase activity. P55789. purified ALR, DTT oxidation, H2O2 HRP-luminol luminescence. inhibition, % (test concentration not listed). 290,000 tested, 3.8% active. AID 485317;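 active = mean and each replicate at 75% or more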;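 note: stock transfer was 7.5 nL into about 7.5 µL; 0% = neutral wells and 100% = wells with inactivated enzyme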
Target sequence (P55789 whole entry, looked up): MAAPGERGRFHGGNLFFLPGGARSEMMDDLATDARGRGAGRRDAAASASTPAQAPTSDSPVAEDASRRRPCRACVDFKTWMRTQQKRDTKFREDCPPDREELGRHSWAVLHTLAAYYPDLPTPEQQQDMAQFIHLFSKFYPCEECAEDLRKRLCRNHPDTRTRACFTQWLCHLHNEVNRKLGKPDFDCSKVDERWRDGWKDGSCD
Ecoli growth – E. coli growth inhibition; Escherichia coli growth, OD600, 23 h; hits give low values; OD600 absorbance (no concentration beside the values); 330,000 tested, 0.21% active; AID 1053175;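 active = OD600 absorbance below the run mean of sample wells minus 3.6 SD, in any replicate, cut at about 0.56 in these data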;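 note: stock transfer was 300 nL into about 60 µL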
Starred values were filed as active, the others as inactive; i = inactive; · = not tested or not shown; + = active, no number. This is a subset, so the mix of outcomes need not match the whole.

SMILES	HNF4A DNA FP	LANA-H2A inh	FGF22 binding	UCH37 inh	Beta2AR agonist	ALR inh	Ecoli growth
CCCOC(=O)c1ccc(Oc2cn[nH]c2-c2ccc(OCC)cc2O)cc1	-0.9	1.4	·	3.3	0.4	-9.4	0.697
COc1cc2c(cc1OC)C(Nc1ccccc1)=NC(C)(C)C2	-3.1	·	i	3.9	-1.1	·	0.688
CN(CC(=O)Nc1ccc(C#N)cc1)CC(=O)Nc1ccc(N2CCOCC2)cc1	0.2	-0.9	·	3.1	0.6	·	0.685
COc1ccc(CC(=O)O/N=C(\N)Cc2ccc(OC)c(OC)c2)cc1	-0.7	0.7	i	3.2	9.1	-8.9	0.696
CNC(=O)c1nc(C)n(-c2ccc([N+](=O)[O-])cc2)n1	-4.5	-3.6	·	-0.3	-0.2	-35.4	0.722
N#C/C(=C\c1ccc(Oc2ccc(C(F)(F)F)cc2[N+](=O)[O-])cc1)c1nc2ccccc2[nH]1	0.1	-15.1	·	-5.5	0.3	-0.3	·
Cc1cc(C)cc(-n2ncc3c2CCCC3NC(=O)CCN2CCCC2=O)c1 (stereo unspecified)	-0.2	-2.0	i	4.1	-3.3	-4.3	0.734
Cc1ccc(C(=O)NCCN2CCOCC2)cc1S(=O)(=O)N1CCCCC1	-1.5	-3.8	i	2.3	-4.0	-1.8	0.719
Cc1ccc(NC(=O)C2CCN(S(=O)(=O)c3cccs3)CC2)cc1C	-2.0	-0.6	·	3.6	7.5	-14.5	0.677
COC(=O)C(C)Sc1ccc2nnc(-c3cccc(F)c3)n2n1 (stereo unspecified)	5.8	0.4	i	-22.1	-1.1	-7.9	0.695
O=C1CC2(CCOCC2)Oc2ccc3ccccc3c21	1.8	-9.4	i	2.2	-2.4	-11.4	0.68
O=c1[nH]c(CN2CCN(c3ccccn3)CC2)nc2c(Br)cc(Br)cc12	4.4	-0.3	i	1.8	-5.8	4.1	0.645
Fc1cccc(Cl)c1CSc1ccc(-c2ccco2)nn1	4.0	-3.0	i	5.2	-6.0	98.3*	0.694
Cn1cnc(S(=O)(=O)Nc2ccc3c(c2)OCCO3)c1	0.7	-1.4	i	2.1	3.3	-4.3	0.674
O=C(Cc1ccccc1[N+](=O)[O-])NCc1ccccc1Cl	-4.5	-2.3	·	2.9	-3.2	-6.3	0.738
CCS(=O)(=O)N1Cc2ccccc2CC1C(=O)Nc1ncc(C)s1 (stereo unspecified)	9.9	3.6	·	2.5	-5.8	-7.5	0.707
O=C(NNC1=NCCCCC1)Nc1ccc(Cl)cc1	-5.7	-2.6	i	1.0	0.8	0.7	0.647
CCCc1cc(=O)[nH]c(SCC(=O)c2ccc3c(c2)NC(=O)CO3)n1	-3.6	0.5	i	-0.5	4.2	97.0*	0.645
COc1ccccc1C(=O)N/N=C(\C)c1cccnc1	1.2	-3.2	i	·	-8.8	-2.0	·
Oc1ccccc1C1=NOC(O)(C(F)F)C1 (stereo unspecified)	-1.9	1.7	·	1.0	-2.7	-12.1	0.696
O=C(NCc1ccccc1)C1CCCN(c2nc3ccsc3c(=O)s2)C1 (stereo unspecified)	9.2	1.5	i	-44.0	-12.3	-0.1	0.705
Cn1nnnc1NCc1ccc(Cl)c(Cl)c1	0.5	3.9	i	2.1	-1.1	0.9	0.7
CCCNC(=O)COC(=O)c1ccccc1C(=O)N(C)C1CCCCC1	0.4	2.6	+	4.6	7.6	1.5	0.737
Cc1ccc([N+](=O)[O-])c2c1C(N1CCCC1)C(C)(C)O2 (stereo unspecified)	0.5	-6.5	i	2.2	3.9	-5.0	0.702
COc1ccc(-n2c(C)cc(C(=O)CSc3nnc(-c4ccoc4C)n3C)c2C)cc1	1.6	1.3	·	4.5	-5.0	-1.8	0.685
CC[C@]12c3[nH]c4ccc(OC)cc4c3CCN1C(=O)C(CC(=O)NCc1ccco1)C[C@@H]2C(=O)N1CCN(C(=O)c2ccco2)CC1 (stereo partly specified)	1.1	·	i	1.2	-5.2	·	0.703
CCOC(=O)c1cnc2c(-c3cccc(Br)c3)cnn2c1C	0.3	0.3	·	-2.0	1.1	-2.0	0.681
CCOC(=O)N/N=C/C(Cl)=C/c1ccccc1	2.2	1.9	i	·	1.9	2.0	·
Cc1ccc(C)c(NS(=O)(=O)c2c(C)nn(C)c2C)c1	3.4	-2.0	·	2.3	-0.1	-3.9	0.709
COc1ccc(C(=S)N2CCOCC2)cc1OC(=O)c1ccccc1Cl	-1.8	4.4	i	1.4	2.1	-9.5	0.638
N#C/C(=C/Nc1ccccc1)c1ccsc1	-2.0	-0.4	·	2.4	-1.1	88.9*	0.714
Clc1ccc(Oc2nc3c(Cl)cccc3s2)cc1Cl	-4.7	-2.3	·	2.1	4.4	-9.9	0.626
Cc1c(NC(=O)COC(=O)/C=C/c2cccc(Cl)c2)c(=O)n(-c2ccccc2)n1C	-0.7	0.3	i	1.3	-4.9	37.1	0.684
O=C(NC1CCCC1)C(c1ccccc1)N(Cc1cccnc1)C(=O)Cc1cccs1 (stereo unspecified)	-1.8	-4.6	i	2.2	5.8	-31.0	0.701
O=c1nc(C(F)(F)F)nc2ccccn12	1.8	-1.4	·	-1.9	4.4	-8.7	0.725
NC(=O)C1CCN(CC(O)CSc2ccc(F)cc2)CC1 (stereo unspecified)	-3.1	1.6	·	-0.9	-0.1	-6.1	0.716
CC(=O)Nc1ccc(NC(=O)C(=O)NCC(c2ccco2)N2CCc3ccccc32)cc1 (stereo unspecified)	-3.8	-7.7	i	·	5.1	-5.9	·
COc1ccc(-c2noc(=O)n2Cc2cc(C)ccc2C)cc1	4.4	-0.5	i	1.6	1.6	·	0.657
Cn1c(=O)c2c(ncn2CC(=O)OCC(=O)Nc2ccccc2Cl)n(C)c1=O	-0.6	1.6	·	1.0	6.1	1.9	0.66
O=C(NCCCNC(=O)c1ccccn1)c1ccc(Cl)cc1	-2.8	-2.8	i	2.3	-3.2	11.6	0.661
O=C(N/N=C1\SCC(=O)N1CCc1ccccc1)c1cccs1	5.5	0.5	i	·	-8.1	-13.2	·
CCOc1ccc(-c2cc3cc(OC)c(OC)cc3c(C)n2)cc1	-2.3	2.4	·	-12.7	-2.7	1.3	0.703
Cc1nc(-c2ccc(NC(=O)Cc3ccccc3)cc2)cs1	0.4	4.0	i	3.9	10.8	·	0.728
CCn1c(CN2CCCCC2)nc2cc(S(=O)(=O)N3CCCCC3)ccc21	-2.7	·	i	2.0	3.5	·	0.643
COc1ccc(-c2cc(C)no2)cc1S(=O)(=O)NCCCN1CCN(c2ccccc2)CC1	1.0	-3.0	i	3.3	-20.6	46.1	0.699
CN1C(=O)CC(N2CCN(CC(N)=O)CC2)C1=O (stereo unspecified)	-2.2	-1.3	·	0.0	7.5	-4.1	0.721
COc1ccc(C(=O)Nc2nnc(Cc3ccc(OC)c(OC)c3)s2)cc1	-5.1	2.6	i	2.1	16.8	-2.8	0.688
NC(=NC1CCCCC1)NS(=O)(=O)c1ccccc1	3.0	-1.3	i	2.3	-5.4	·	0.679
O=C(O)CCn1cc(/C=C/C(=O)c2ccc(Cl)cc2)c(-c2cccc(Br)c2)n1	-4.6	1.1	i	4.0	21.6	·	0.639
CCC(CC)c1nnc(NC(=O)C2CC(=O)N(C3CCCC3)C2)s1 (stereo unspecified)	-2.4	-5.0	i	3.9	-11.0	1.5	0.668
CCOC(=O)c1c(NC(=O)CS(=O)(=O)c2cn(CC)c3ccccc23)sc2c1CCCC2	3.0	-6.0	i	1.0	2.5	-3.0	0.786
N#Cc1ccc(CSc2nnc(-c3ccncc3)o2)cc1	-1.7	3.7	i	1.5	0.0	-22.1	0.719
CC(NC(=O)c1cccc(N2CCCC2=O)c1)c1ccc2c(c1)OCCO2 (stereo unspecified)	0.5	3.7	·	-0.2	2.5	-21.3	0.728
Cc1ccc(-c2cc(C(F)F)n3ncc(C(=O)Nc4c(C)nn(Cc5ccccc5Cl)c4C)c3n2)cc1	-1.7	-0.2	·	4.7	0.5	-4.5	0.72
CCOC(=O)c1ccc(N2Cc3ccccc3C2)cc1O	-0.9	9.7	i	-1.7	-1.8	-2.8	0.627
Nc1cc(=O)[nH]c(=O)n1CCc1ccccc1	-0.5	2.8	i	0.5	-3.9	-0.7	0.664
CCOC(=O)N1CCN(C(=O)c2ccc3c(=O)n4c(nc3c2)CCCCC4)CC1	·	0.3	·	28.7*	·	-1.6	0.696
Cc1cc(NS(=O)(=O)c2ccccc2)c(C)c(Cl)c1O	0.9	1.4	·	3.0	8.1	99.9*	0.667
O=C(CSc1nnc(-c2c[nH]c3ccccc23)o1)NCC1CCCO1 (stereo unspecified)	-1.8	·	i	0.4	3.1	-9.2	0.621
COc1ccc(C2CC(c3ccc4ccccc4c3OC(C)=O)=NN2C(C)=O)cc1 (stereo unspecified)	-3.4	-3.4	i	-15.0	-9.0	-3.4	0.636

Of the compounds above, these contain a furan ring, fused or not:
SMILES	HNF4A DNA FP	LANA-H2A inh	FGF22 binding	UCH37 inh	Beta2AR agonist	ALR inh	Ecoli growth
Fc1cccc(Cl)c1CSc1ccc(-c2ccco2)nn1	4.0	-3.0	i	5.2	-6.0	98.3*	0.694
COc1ccc(-n2c(C)cc(C(=O)CSc3nnc(-c4ccoc4C)n3C)c2C)cc1	1.6	1.3	·	4.5	-5.0	-1.8	0.685
CC[C@]12c3[nH]c4ccc(OC)cc4c3CCN1C(=O)C(CC(=O)NCc1ccco1)C[C@@H]2C(=O)N1CCN(C(=O)c2ccco2)CC1 (stereo partly specified)	1.1	·	i	1.2	-5.2	·	0.703
CC(=O)Nc1ccc(NC(=O)C(=O)NCC(c2ccco2)N2CCc3ccccc32)cc1 (stereo unspecified)	-3.8	-7.7	i	·	5.1	-5.9	·

Later entries:
SMILES	HNF4A DNA FP	LANA-H2A inh	FGF22 binding	UCH37 inh	Beta2AR agonist	ALR inh	Ecoli growth
CCC(C)(C)n1nnnc1C(c1cc2ccc(OC)cc2[nH]c1=O)N1CCc2ccccc21 (stereo unspecified)	1.8	-3.3	·	3.3	-2.0	-2.9	0.736
COc1ccc([C@@H]2CC=C(C(=O)O)CN2S(=O)(=O)c2ccc(Cl)cc2)cc1	-3.8	2.4	i	4.6	-3.1	1.8	·
Cc1csc(NC(=O)C(C)N2C(=O)c3ccccc3S2(=O)=O)n1 (stereo unspecified)	-0.8	-0.1	i	1.2	-3.7	0.1	0.676
COC(=O)c1ccccc1NC(=O)COc1ccccc1	1.3	2.4	·	2.3	-1.2	-3.9	0.689
Cc1ccccc1NS(=O)(=O)c1cc(C(=O)Nc2ccccc2-c2ccccc2)ccc1Cl	1.2	3.2	·	6.0	-8.3	0.3	0.719
CC(=NNC(=S)Nc1cccc(C)c1)c1ccccn1	23.1	·	i	·	3.7	·	·
CC(C)NC(=S)NCc1cccs1	2.9	1.9	i	0.1	10.2	0.5	0.664
Cc1ccccc1OCC(=O)NN1Cc2ccccc2C1=N	3.5	2.6	·	-2.3	3.5	0.7	0.69
Cc1c(CCNC=O)cc(C)c2c3c(oc12)CCCC3	2.2	·	i	·	-3.3	·	·
COC(=O)C1=C(C)NC2=C(C(=O)C(C(=O)OC)C(c3ccc(OC)cc3)C2)C1c1ccccn1 (stereo unspecified)	2.6	1.8	·	-161.0	2.3	-10.6	0.714
CCc1nnc(NC(=O)CSc2ccc(-c3cccs3)nn2)s1	1.1	-6.3	i	4.2	4.1	-0.6	0.69
Cc1nc(N)sc1C(=O)N/N=C/c1ccccc1[N+](=O)[O-]	-6.0	3.0	i	·	·	-1.3	·
CCCCCCN(C(=O)CCCN1C(=O)NC(c2ccc([N+](=O)[O-])cc2)C(C(=O)OCc2ccccc2)=C1C)C(C)C(=O)NCCCC (stereo unspecified)	-0.9	·	·	1.0	8.3	·	0.768
COc1ccc(C(=O)N2CCCC(C(=O)N3CCCCCC3)C2)cc1 (stereo unspecified)	-4.0	-1.3	·	2.6	-0.8	-18.1	0.722
CCC1(COC(=O)Nc2cccc(Cl)c2)COC1	3.3	-5.0	·	1.4	4.4	-2.3	0.634
COc1ccc(-c2nc3c4ccccc4ccn3c2CN2CCCCC2)cc1OC	3.8	-1.1	i	-11.8	18.1	-9.5	0.699

Bioassay records: PubChem, several laboratories
